miR-21 FLuc: qHTS Assay for Modulators of miRNAs and/orActivators of miR-21 | HeLa miR-21 FLuc reporter, luciferase, 48 h | Potency, µM (doses to about 38.3 µM), for the others: at the top dose reporter change, positive = more light | 340,000 tested, under 10 active; active = well fitted rising curve with a large enough effect; inconclusive = small, poorly fitted or top-dose-only effect; inactive = no such curve, though single readings can be large or run the other way;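 also: % of control where 0% means no effect; miR-21 action dims this reporter so a rising signal means less miR-21 action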
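HeLa cells stably expressing CMV-driven firefly luciferase with a downstream miR-21 binding sequence, endogenously expressing miR-21, were treated with titrations (up to about 40uM final) for 48 hours at 37 degree Celsius. Luciferase luminescence was read after lysis.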
Rango dissoc inh: qHTS Assay for Inhibitors of RanGTP induced Rango (Ran-regulated importin-beta cargo) - Importin beta complex dissociation; Snurportin-1 (Homo sapiens) + GTP-binding nuclear protein Ran (Homo sapiens) + Importin …; Biochemical FRET Rango-importin beta, RanGTP-induced dissociation; Potency, µM (doses to about 46.1 µM), for the others: top-dose activity change, negative = inhibition; actives 0.071% (n = 340,000); AID 540253, 2011; active means falling FRET ratio curve, often poorly fitted, with flat reads before Ran was added; inconclusive means other falling curves, or compound fluorescence or quenching; inactive means flat or rising ratio curve;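 also: potency is read from the fitted curve at half-maximal effect; % of control where 0% means no effect; nearly all actives have a fitted effect of over 45% in size; -100% = wells without RanGTP and RCC1; the record marks most hits as doubtful in a second field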
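Rango FRET biosensor (snurportin-1 IBB flanked by N-terminal EYFP and C-terminal CFP10) at 0.1 uM, with 0.25 uM importin beta in PBS, 1mM DTT, 0.02% Tween-20, 0.1% BSA. 0.6 uM Ran, 2mM GTP and 0.2 uM RCC1 were then added for 45 min at room temperature. Inhibition read as loss of FRET rise.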
Rango complex inh: qHTS Assay for Inhibitors of Rango (Ran-regulated importin-beta cargo) - Importin beta complex formation. Potency, µM (series often up to 92.2 µM), inactives show at the highest dose inhibition of complex formation. actives 0.031% (n = 340,000). AID 540263, 2011. Importin subunit beta-1 (Homo sapiens), Q14974. Rango CFP/YFP FRET sensor + importin beta, 45 min; active = rising FRET ratio curve, often small or poorly fitted; inconclusive = mostly compound fluorescence or quenching in the first reads; inactive = flat curves in all reads;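 also: potency is read from the fitted curve at half-maximal effect; 0% = DMSO wells and 100% = buffer wells lacking importin beta; nearly all actives have a fitted effect of over 15% in size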
Target sequence (Q14974 whole entry, looked up): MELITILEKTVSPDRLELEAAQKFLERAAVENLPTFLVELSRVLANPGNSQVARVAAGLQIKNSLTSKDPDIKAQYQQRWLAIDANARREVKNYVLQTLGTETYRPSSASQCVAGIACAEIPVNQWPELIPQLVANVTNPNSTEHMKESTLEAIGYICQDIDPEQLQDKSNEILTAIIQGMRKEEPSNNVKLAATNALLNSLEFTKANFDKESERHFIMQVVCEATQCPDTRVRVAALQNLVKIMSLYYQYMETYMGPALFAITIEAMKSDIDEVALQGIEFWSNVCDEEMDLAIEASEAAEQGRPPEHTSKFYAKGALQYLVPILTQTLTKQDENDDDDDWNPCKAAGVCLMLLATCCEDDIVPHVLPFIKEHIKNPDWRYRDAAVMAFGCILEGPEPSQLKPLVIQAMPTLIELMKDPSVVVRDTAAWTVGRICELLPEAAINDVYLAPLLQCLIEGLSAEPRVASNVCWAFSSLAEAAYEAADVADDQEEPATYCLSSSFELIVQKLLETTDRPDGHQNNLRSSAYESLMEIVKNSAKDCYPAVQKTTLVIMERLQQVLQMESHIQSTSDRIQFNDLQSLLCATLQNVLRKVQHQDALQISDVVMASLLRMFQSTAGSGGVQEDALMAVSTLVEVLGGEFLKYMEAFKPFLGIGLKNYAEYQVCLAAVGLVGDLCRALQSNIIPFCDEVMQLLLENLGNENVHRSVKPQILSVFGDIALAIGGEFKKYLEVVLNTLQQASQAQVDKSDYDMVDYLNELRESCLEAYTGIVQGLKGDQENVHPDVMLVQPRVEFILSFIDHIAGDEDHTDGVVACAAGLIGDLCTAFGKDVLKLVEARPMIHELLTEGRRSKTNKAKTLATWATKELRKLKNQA
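FRET biosensor Rango (snurportin 1 IBB between N-terminal EYFP and C-terminal Cerulean), 50 nM in PBS/1 mM DTT/0.02% Tween-20/0.1% BSA, preincubated 5 min RT with compound; 0.125 microM importin beta added, 45 min RT, CFP/YFP FRET ratio read.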
GLA inh pH 4.5: qHTS Assay for Inhibitors of Human alpha-Galactosidase at pH 4.5; Alpha-galactosidase A (Homo sapiens), P06280; purified enzyme, 4-MU-alpha-Gal fluorescence, pH 4.5; activity change, negative = inhibition, % at 105 µM; 230,000 tested, under 10 active; inconclusive = small, poorly fitted or top-dose-only inhibition, or a rising curve; inactive = flat fitted curve, though single readings scatter; no compound was filed as active;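 also: 0% = full activity with enzyme and -100% = basal without enzyme; dose as in the result columns while the protocol names 77 µM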
* hit, by the source's call; ? = inconclusive; / = not tested or not shown; & = joins results of further samples; [ ] = remark or other dose. An excerpt (hit frequency here may not be typical).

SMILES	miR-21 FLuc	Rango dissoc inh	Rango complex inh	GLA inh pH 4.5
COc1ccc(NC(C)=O)cc1NC(C)C(=O)Nc1cc(C(F)(F)F)ccc1N1CCOCC1 (stereo not drawn)	-10.2%	-8.9%	0.2%	2.1
OCCN1CCN(Cc2ccc3ccccc3c2)CC1	-4.4%	-0.6%	2.4%	/
O=C(c1ccncc1)N(Cc1ccco1)Cc1cc2ccccc2[nH]c1=O	-1.1%	0.9%	3.0%	3.5
COc1ccc(-n2c(C)cc(C(=O)CN3C(=O)c4ccccc4C3=O)c2C)cc1	-29.0%	-0.6%	-0.7%	-2.4
Nc1cc(C(=O)OCC(=O)c2ccc(CC(=O)N3CCOCC3)s2)ccc1Cl	/	-12.3%	?	/
CCN1C(=O)C(O)(CC(=O)c2cc(C)ccc2C)c2ccccc21 (stereo not drawn)	-2.7%	3.0%	1.9%	6.5
COc1ccc(C(=O)NCC(=O)N2CCN(c3ccc(F)cc3)CC2)cc1	1.1%	-1.3%	2.0%	/
Cn1ccnc1Sc1ccccc1[N+](=O)[O-]	-4.2%	-11.5%	-0.7%	0.5
Cc1[nH][nH]c(=O)c1C(c1ccc(-c2ccc(Cl)cc2)o1)c1c(C)[nH][nH]c1=O	-0.8%	20.6%	-0.4%	-5.7
CCN(Cc1ccccc1)S(=O)(=O)c1ccc(S(=O)(=O)N(Cc2ccccn2)Cc2ccco2)cc1	-0.6%	-4.7%	-0.9%	6.0
CCOC(=O)Cn1nc(NC(=O)c2cc(OC)cc(OC)c2)cc1C	1.9%	0.7%	-3.3%	/
Clc1cccc(-c2ccc(C3Nc4cccc5cccc(c45)N3)o2)c1	/	-7.4%	-2.4%	/

Reprinted from the part before: two compounds; new compounds follow.
SMILES	miR-21 FLuc	Rango dissoc inh	Rango complex inh	GLA inh pH 4.5
CCOC(=O)Cn1nc(NC(=O)c2cc(OC)cc(OC)c2)cc1C	1.9%	0.7%	-3.3%	/
Clc1cccc(-c2ccc(C3Nc4cccc5cccc(c45)N3)o2)c1	/	-7.4%	-2.4%	/
NC(=O)C1(c2ccccc2)CCCN1C(=O)c1ccccc1Br (stereo not drawn)	0.0%	3.9%	-3.9%	?
CC(=O)c1sc(N/N=C/c2cccc([N+](=O)[O-])c2)nc1C	-11.4%	-1.5%	?	/
COc1ccc(NS(=O)(=O)c2cc(-c3nnnn3C)ccc2OC)cc1	0.5%	0.4%	0.8%	-4.6
Cc1ccc(NC(=O)Cn2cccc2)cc1C	-8.4%	9.4%	1.3%	-2.9
Cc1ccc(NC(=O)c2ccc3c(SCC(=O)O)c4c(nc3c2)CCCC4)c(Br)c1	1.5%	-5.0%	?	/
Oc1ccc(Nc2ncnc3ccccc23)cc1	-23.3%	5.9%	0.1%	/
CCc1cc(=O)oc2c3c(cc(OCC(=O)NCCCOC)c12)OC(C)(C)CC3	-20.0%	-14.3%	0.8%	/
CC(=O)N1c2ccc(S(=O)(=O)NCCc3ccc(Cl)cc3)cc2CC1C (stereo not drawn)	-2.9%	13.9%	0.4%	/
CN1/C(=C\C(=S)NC(=O)c2ccc([N+](=O)[O-])cc2)C(C)(C)c2ccccc21	-9.8%	0.3%	-4.1%	-2.5
COc1ccc(/C=C2\SC(=S)N(NS(=O)(=O)c3ccc(C)cc3)C2=O)c(OC)c1	-3.3%	-2.5%	-4.3%	/
Cc1cccc(NC(=S)NC2CC3CCCC(C2)N3Cc2ccco2)c1 (stereo not drawn)	-12.8%	1.0%	?	3.8
CCNC(=S)N1CCN(c2ccccc2OCC)CC1	-2.4%	20.3%	0.7%	2.9
C/C=C\C(=O)Nc1cccc(C2=NOC3(C2)C[C@@H](C(N)=O)N(C(=O)c2ccc(OC)cc2)C3)c1 (stereo partly drawn)	0.7%	14.0%	-1.4%	-0.2
COc1ccc(N(CC(=O)Nc2nccs2)S(=O)(=O)c2c(C)[nH]c(=O)[nH]c2=O)cc1	3.0%	-13.9%	-0.9%	4.6
COc1cc(/C=C2/SC(=S)N(CC(=O)O)C2=O)ccc1OC(=O)c1cccs1	13.9%	2.6%	-3.6%	-2.7
Cc1ccc(NC(=O)Cn2c(CCC(=O)O)ccc2-c2ccc(Cl)cc2)cc1	-1.2%&-6.9%	-6.5%	3.1%	/
COc1ccc(C2CC(=O)N(C)c3ccccc3S2)cc1 (stereo not drawn)	-37.2%	-10.3%	2.7%	-6.1
Cc1ccc(-c2nnn(CC(=O)N(c3ccccc3)C(C(=O)NCC3CCCO3)c3cccs3)n2)o1 (stereo not drawn)	-0.6%	1.5%	-0.2%	2.2
CC(C)(C)OC(=O)C[C@@H]1C/C=C\C[C@@H](CC(=O)N[C@@H](CO)Cc2ccccc2)C(=O)NC[C@@H](c2ccccc2)OC1=O	/	4.1%	-1.2%	/
CN1CCSc2ccc(C(=O)Nc3ccc(Cl)cc3)cc21	-60.8%	-15.9%	4.1%	11.4
Clc1ccc(Cn2c(/C=C/c3ccco3)nc3ccccc32)cc1	-33.5%	-24.4%	-3.9%	-1.0
O=C(CSc1nnc2ccccn12)NC(=O)NC1CCCCC1	-4.9%	0.1%	3.0%	-10.0
O=C(O)/C=C/C(=O)Nc1ccc(NC(=O)c2ccccc2)c(Cl)c1	-16.0%	-12.1%	-0.2%	-5.8
Cc1cc(Cl)ccc1OC(C)C(=O)NCCc1ccc2c(c1)OCCO2 (stereo not drawn)	-6.8%	-1.8%	2.3%	4.4

Grouped by structure: the entries above with an aryl thioether with sulfur outside any ring (3)
SMILES	miR-21 FLuc	Rango dissoc inh	Rango complex inh	GLA inh pH 4.5
Cn1ccnc1Sc1ccccc1[N+](=O)[O-]	-4.2%	-11.5%	-0.7%	0.5
Cc1ccc(NC(=O)c2ccc3c(SCC(=O)O)c4c(nc3c2)CCCC4)c(Br)c1	1.5%	-5.0%	?	/
O=C(CSc1nnc2ccccn12)NC(=O)NC1CCCCC1	-4.9%	0.1%	3.0%	-10.0

Next section.
SMILES	miR-21 FLuc	Rango dissoc inh	Rango complex inh	GLA inh pH 4.5
CCn1cc(CCCC(=O)NCc2ccc(OC)cc2)c2ccccc21	-0.3%	1.6%	2.8%	/
O=C(Nc1cccc2ccccc12)N1CC=CCC1	-0.7%	?	-2.6%	-1.4
O=C(c1ccc(S(=O)(=O)NCc2ccco2)cc1)N1CCN(Cc2ccc3c(c2)OCO3)CC1	11.9%	1.1%	-2.6%	3.3
CCOC(=O)c1c(NC(=O)COC(=O)C2CC2C)sc(C)c1C (stereo not drawn)	-12.5%	-0.9%	-0.4%	2.3
O=C(Nc1ccc2c(c1)OCO2)c1ccc(CN2CCOCC2)cc1	-18.6%	-5.8%	2.3%	5.9
O=C(Nc1ccc2c(c1)OCO2)c1cc(-c2ccncc2)nc2ccccc12	10.6%	7.3%	-2.0%	5.7
C=CCn1c2ccccc2c2nnc(SCCCn3c(=O)[nH]c4ccccc43)nc21	16.5%	2.2%	2.0%	-14.3
CC(C)(C)n1ncc2c(=O)n(CC(=O)NCc3ccccc3)cnc21	29.1%	7.5%	-0.3%	1.2
COc1ccc(OC)c(N(CC(=O)N2CCOCC2)S(C)(=O)=O)c1	0.0%	-4.0%	-0.2%	/
CCOC(=O)C(CC(=O)O)=C(c1ccccc1)c1ccccc1	2.2%	3.8%	11.5%	/
CS(=O)(=O)N1N=C(c2cccs2)CC1c1ccccc1O (stereo not drawn)	-2.1%	-0.2%	0.8%	-4.3
C[C@@]12C(=O)N(c3cccc(F)c3)C(=O)N1[C@H](c1ccc(F)cc1)[C@@H]1C(=O)N(C3CCCCC3)C(=O)[C@@H]12	7.8%	-4.2%	0.2%	/
COc1cc(C2c3cc4c(cc3OC(NCCc3ccccc3)C2C)OCO4)cc(OC)c1OC (stereo not drawn)	/	20.9%	-0.2%	/
O=C(CN1CCOCCOCCN(CC(=O)Nc2ccccc2)CCOCC1)Nc1ccccc1	-7.0%	0.9%	0.3%	4.7
CCC(Sc1nc(C)cc(=O)[nH]1)C(=O)Nc1ccc(Cl)cn1 (stereo not drawn)	5.4%	-13.4%	-1.2%	6.7
Cc1cc(-c2nc(-c3ccc(C(C)(C)C)cc3)no2)no1	-52.0%	3.3%	-0.2%	-1.7
O=S(=O)(c1ccc(Cl)c(C(F)(F)F)c1)N1CCN(c2ccccn2)CC1	0.9%	3.0%	?	3.4
O=C(NCCc1ccccc1)C1CCN(c2nc3ccccc3o2)CC1	-5.1%	3.3%	-2.4%	2.0
COc1ccc(CCN2CN(S(=O)(=O)c3ccc(C)cc3)c3nc4ccccc4nc32)cc1OC	-4.8%	4.8%	0.8%	-8.7
Cc1nc(CCNC(=O)c2cc(COc3ccc(F)cc3Cl)on2)sc1C	-23.0%	-0.9%	1.3%	-16.4
O=C(CN1C(=O)C2C3C=CC(C3)C2C1=O)OCC(=O)c1ccc([N+](=O)[O-])cc1 (stereo not drawn)	2.3%	-15.2%	-0.3%	/
C(=N\Nc1nc2ccccc2[nH]1)/c1ccc2ncccc2c1	4.9%	-9.3%	0.6%	-3.0
Cc1nc(NC(=O)c2ccccc2)sc1-c1csc(N)n1	-15.3%	-5.4%	6.9%	-7.6
COC(=O)C(C)NS(=O)(=O)c1ccc(NC(C)=O)cc1 (stereo not drawn)	0.5%	-2.1%	0.2%	-0.5
O=C(NCc1ccccn1)c1ccc(OC2CCN(Cc3ccc(Cl)s3)CC2)cc1	14.0%	?	0.2%	/
NS(=O)(=O)c1ccc(CNC(=O)c2ccc(S(=O)(=O)C(F)F)cc2)cc1	-1.6%	-12.6%	-0.1%	-5.9
Cc1ccc(NC(=O)CNC2CCS(=O)(=O)C2)cc1C (stereo not drawn)	8.5%	0.9%	-3.5%	0.4
Cc1cc(C)c(C#N)c(SCc2cn3c(C)cccc3n2)n1	-32.6%	0.9%	3.3%	-0.1
O=C(NC(Nc1ccc(F)cc1)(C(F)(F)F)C(F)(F)F)c1cccnc1	-4.2%	-12.1%	-0.4%	-8.7
Cn1ncc(N=Cc2ccc([N+](=O)[O-])cc2)c1C(=O)Nc1ccccc1	-0.6%	-1.2%	-0.5%	3.0
COc1ccc2c3c([nH]c2c1)C(C)N(CCC(=O)NN)CC3 (stereo not drawn)	2.5%	?	?	/
CCCn1c(N)nc2ccccc21	-0.9%	7.8%	-0.3%	-1.9
Cc1nn(Cc2ccc(Cl)cc2Cl)c(C)c1NC(=O)C1C2CCC(O2)C1C(=O)O (stereo not drawn)	3.3%	-11.6%	-0.2%	-2.5
C=CCN(c1ccccc1)S(=O)(=O)c1ccc(Cl)c(C(=O)OCC(=O)N(C)C2CCS(=O)(=O)C2)c1 (stereo not drawn)	-0.3%	-3.4%	0.3%	-10.5
CCC(=O)Nc1ccc(C(=O)Nc2cc(C)on2)cc1	-27.9%	-11.5%	5.7%	1.3
Cc1cc2c(cc1S(=O)(=O)Nc1cccc(C)c1C)OCC(=O)N2	3.0%	35.2%	-3.7%	/
CCOC(=O)N1CCN(C(=O)CN(Cc2ccc(Cl)cc2)S(=O)(=O)c2ccccc2)CC1	4.1%	12.0%	?	-10.8
Cc1nc2c3c4c(sc3n3c(SCC(=O)NCc5ccco5)nnc3n2n1)COC(C)(C)C4	0.3%	7.5%	-2.7%	2.7
Cc1ccccc1OCC(=O)OCn1nnc2ccccc2c1=O	-2.4%	-9.2%	-0.3%	-4.2
O=C(COc1ccccc1)Nc1nc2ccccc2[nH]1	-45.5%	-2.6%	-1.1%	8.7
Cc1ccc(NS(=O)(=O)c2ccc(-n3cccn3)cc2)cc1F	9.0%	8.7%	0.7%	/
Cc1ccc(SCC(=O)N(C)CC(=O)Nc2cccc(F)c2)cc1	/	-11.9%	-3.0%	/
CSc1ccccc1NC(=O)c1ccccn1	-31.5%	-0.1%	-1.6%	2.1[21.1 µM]
S=c1[nH]nc(-c2cc(-c3ccsc3)n[nH]2)n1-c1ccccc1	-2.2%	-2.9%	-0.1%	2.1

From PubChem
